Screening data as filed in PubChem.
Sfp inh = Sfp phosphopantetheinyl transferase inhibition; Biochemical Sfp PPTase activity, qHTS; AID 1490; Potency, µM, without a hit: max response, negative = inhibition, actives largely listed as inhibitors; 310,000 compounds, 3.5% hits; active = well fitted inhibition curve with a large enough effect; inconclusive = small, poorly fitted or top-dose-only effect, or another doubt; inactive = no such curve, though single readings can be large or run the other way;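 note: the enzyme is Sfp with the accession as filed and its product quenches rhodamine fluorescence; potency is the fitted concentration of half-maximal effect; 0% = enzyme reaction without inhibitor and -100% = no enzyme wells; top concentration of the series not given in the record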
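Fluorescence-quenching assay: 15 nM Sfp-PPTase preincubated 15 min at room temperature with compound, then 5 uM rhodamine-CoA and 12.5 uM BHQ-2-labelled YbbR peptide added. Fluorescence (ex 525/em 598 nm) read at start and after 30 min; difference gives rate.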
gsp antagonist = antagonists of gsp mutant (McCune-Albright syndrome). gsp-mutant cells, cAMP HTRF, 30 min; control for the full effect not named in the record. Potency, µM (doses to about 76.9 µM), without a hit: at the highest dose activity change, negative = inhibition, hits mostly inhibitors. 340,000 compounds, 0.4% hits. AID 624288; active = falling curve of any shape with a large fitted effect; inconclusive = falling curve, mostly with a smaller effect; inactive = flat or rising curve; cell line not stated here;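 note: intracellular cAMP measured with PDE inhibitor Ro 20-1724 present during compound exposure; potency is the fitted concentration of half-maximal effect; % is set by controls: 0 for no effect and ±100 for the full control effect; nearly all actives have a fitted effect of over 65% in size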
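Cells in G418 medium, seeded 16-24 h, 37C; buffer exchange to DPBS + 1 mM CaCl2, 0.5 mM MgCl2, 0.05% BSA; cpds in DMSO + […] (300 uM stock), 30 min 37C; HTRF cAMP detection.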
Menin-MLL FL inh = menin-MLL binding inhibition, fluorescein peptide; Fluorescence polarization, fluorescein-MLL peptide displacement from menin; 290,000 tested, under 10 active; FP activity change, % at 61.4 µM; inconclusive = falling polarisation curve, or a change in total fluorescence; inactive = total fluorescence flat and polarisation flat or rising; no compound was filed as active; the % refers to the polarisation; negative = inhibition;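 note: % of control where 0% means no effect; inhibitors lower the polarisation; unlabelled MLL peptide was the positive control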
D2 PAM = human D2 receptor positive allosteric modulation. P14416. DiscoveRx D2 beta-arrestin cells, luminescence, 90 min; 100% = 57 uM dopamine signal. potentiation, % (concentration not given with the values). 360,000 compounds, 0.23% hits. AID 624464; active = potentiation of 50% or more; inconclusive = 30% to 50%; inactive = 30% or less;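 note: tested on top of an EC20 dose of dopamine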
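D2 cells co-treated with compound plus 50 nM dopamine (EC20) for 90 min at 37 deg C to detect potentiation. Beta-arrestin recruitment was read as enzyme-fragment luminescence after 1 h at ambient temperature. Full response was set by 57 uM dopamine.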
TRPV1 PAM = human TRPV1 potentiation | Q8NER1 | TRPV1-expressing cells, Fluo-8 calcium influx, capsaicin EC20 potentiation; host cell line not named in the record; control for the full effect not named in the record | potentiation, % at 8.33 µM | 320,000 compounds, 0.02% hits | AID 540277; active means potentiation above 80%; inconclusive means 30% to 80%; inactive means below 30%; note: 0% is about no effect
Target sequence (Q8NER1 whole entry, looked up): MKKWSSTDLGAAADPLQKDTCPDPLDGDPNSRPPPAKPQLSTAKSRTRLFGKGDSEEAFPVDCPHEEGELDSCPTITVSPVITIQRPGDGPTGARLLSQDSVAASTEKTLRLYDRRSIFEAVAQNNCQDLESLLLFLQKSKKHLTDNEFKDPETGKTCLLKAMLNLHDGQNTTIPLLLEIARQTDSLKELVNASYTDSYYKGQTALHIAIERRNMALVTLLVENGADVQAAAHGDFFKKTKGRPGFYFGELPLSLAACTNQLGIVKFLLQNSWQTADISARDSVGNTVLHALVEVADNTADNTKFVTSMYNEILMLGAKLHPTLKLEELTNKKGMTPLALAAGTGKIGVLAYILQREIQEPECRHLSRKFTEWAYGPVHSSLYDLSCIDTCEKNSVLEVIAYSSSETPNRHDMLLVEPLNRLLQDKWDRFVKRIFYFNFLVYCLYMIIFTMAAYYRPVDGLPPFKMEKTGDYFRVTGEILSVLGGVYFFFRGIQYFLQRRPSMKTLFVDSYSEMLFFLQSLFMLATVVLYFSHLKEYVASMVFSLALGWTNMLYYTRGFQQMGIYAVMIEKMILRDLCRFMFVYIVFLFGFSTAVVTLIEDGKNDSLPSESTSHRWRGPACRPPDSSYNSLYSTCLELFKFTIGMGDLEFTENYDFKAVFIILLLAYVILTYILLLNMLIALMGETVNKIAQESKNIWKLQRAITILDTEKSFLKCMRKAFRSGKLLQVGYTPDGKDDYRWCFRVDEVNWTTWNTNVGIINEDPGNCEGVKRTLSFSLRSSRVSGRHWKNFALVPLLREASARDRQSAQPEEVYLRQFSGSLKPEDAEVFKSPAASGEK
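TRPV1-expressing cells were cultured overnight at 35.5C and loaded with Fluo-8 calcium dye for 40 to 90 min at room temperature. After a 10 s baseline, compound was added and calcium influx was read kinetically for 3 min (ex 480/em 520 nm).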
gsp ag = agonists of gsp mutant (McCune-Albright syndrome); gsp mutant cells, cAMP HTRF, 30 min; control for the full effect not named in the record; Potency, µM (doses to about 76.9 µM), without a hit: top-dose activation (cAMP increase), actives largely listed as activators; 340,000 compounds, 0.13% hits; active = well fitted activation curve with a large enough effect; inconclusive = small, poorly fitted or top-dose-only effect, or another doubt; inactive = no such curve, though single readings can be large or run the other way; cell line not stated here;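 note: phosphodiesterase inhibitor Ro 20-1724 added with compounds to block cAMP breakdown; potency is the fitted concentration of half-maximal effect; nearly all actives have a fitted effect of over 60% in size; about a fifth of the inactives were tested at one dose only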
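Cells stably selected in G418 were plated at 2000/well, grown 16-24 hr, then given compounds in DMSO with the PDE inhibitor […] (300 uM solution added) for 30 min at 37C; cAMP was read by HTRF.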
ClpP mod = qHTS Assay for Activators of ClpP; purified B. subtilis ClpP, FRET peptide cleavage, 20 min; Potency, µM (top dose mostly 57.5 µM), for inactives: at the top dose activity change, negative = active; 340,000 compounds, 1.9% hits; AID 651965, 2013; active = well fitted falling curve with a large enough effect; inconclusive = small, poorly fitted or top-dose-only effect; inactive = no such curve, though single readings can be large or run the other way; note: potency is the fitted concentration of half-maximal effect; the source files actives as falling curves though it sought activators and does not explain the sign; nearly all actives have a fitted effect of over 65% in size; many hits overshoot -100%
Target sequence (P80244 whole entry, looked up): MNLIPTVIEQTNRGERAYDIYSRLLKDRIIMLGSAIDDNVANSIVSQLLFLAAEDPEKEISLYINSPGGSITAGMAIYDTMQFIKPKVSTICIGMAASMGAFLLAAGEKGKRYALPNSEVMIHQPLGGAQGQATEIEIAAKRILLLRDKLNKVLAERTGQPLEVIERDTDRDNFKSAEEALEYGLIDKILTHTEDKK
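FRET quenching reversal measured ClpP activation: 10 microg/mL B. subtilis ClpP at pH 8 with the FRET-FV decapeptide, read at 430 nm after 320 nm excitation. The 20-min minus 0-min signal was scaled between DMSO/no-enzyme wells and ADEP (5.8 microM final).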
The depositor's hits bear a star; ? = inconclusive; · = not tested or not shown; & = joins results of further samples; [ ] = another dose, or the depositor's remark.

mol	Sfp inh	gsp antagonist	Menin-MLL FL inh	D2 PAM	TRPV1 PAM	gsp ag	ClpP mod
C=C(C)COc1ccc(-c2ncnc(C(F)(F)F)c2-c2ccc(OC)cc2)c(O)c1	-6%	0%	-3.8	10	6	-14%	·
CCCCn1c(N)c(N(CC(C)C)C(=O)CCCSc2nncs2)c(=O)[nH]c1=O	-4%	10%	-0.3	-3	0	-9%	·
CCn1c(/C=C2\C(=O)Nc3ccccc32)nc2ccccc2c1=O	21%	1%	-0.8	-1	4	-11%[15.4 µM]	-1.2%
O=C(NCCc1ccccc1)C1CCN(C2CCN(Cc3ccco3)CC2)CC1	12%	-15%	-5.7	-4	2	22%[15.4 µM]	-0.7%
COC(=O)CCNC(=O)Cn1cnc2sc3c(c2c1=O)CCCC3	20%	17%	-3.9	-2	6	?	·
COc1ccc(NC(=O)C2CCN(S(=O)(=O)c3ccc4c(c3)NC(=O)CO4)CC2)cc1	1%	-3%	·	-15	11	6%	0.0%
Cc1cc(C)c(CN2CCN(C(=O)Cn3ccc(NC(=O)OCc4ccccc4)nc3=O)CC2)c(C)c1	·	-9%	·	-3	6	-7%	-0.9%
Cc1nn(Cc2ccc(Cl)cc2Cl)c(C)c1NC(=O)c1nn(C)cc1Cl	14%	?	5.4	-3	15	-31%[inhibitor]	0.4%
O=S(=O)(Nc1nc2ccccc2nc1Nc1ccc2c(c1)OCCO2)c1cccs1	-2%	?	?	22	27	-35%[inhibitor]	-22%
c1ccc(N=NN2CCOCC2)cc1	·	·	·	-1	·	24%	0.8%
Cc1ccc(C2(c3ccccc3)NC(=O)N(CC(=O)N3CC(=O)Nc4ccccc43)C2=O)cc1C (stereo unspecified)	·	1%	·	-5	-50	-14%	-0.6%
O=C(O)c1cccc(N2C(=O)CSC2c2ccccc2)c1 (stereo unspecified)	-7%	8%	1.1	2	-1	-5%	·
NC(=S)N=Nc1c(O)n(CCCl)c2ccc(Cl)cc12	8%	1%	2.0	-9	4	-2%[15.4 µM]	·
O=S(=O)(c1ccccc1)N1CCNCC1	·	4%	·	-4	·	7%[15.4 µM]	-0.4%
CC1=C(C(=O)OCCOC(C)C)C(c2cc3c(cc2Br)OCO3)C2=C(CCCC2=O)N1 (stereo unspecified)	0%	-4%	-4.6	-16	-10	-14%	?
COc1ccccc1C1CC(c2ccc(Cl)cc2Cl)Nc2nc(N)nn21 (stereo unspecified)	3%	1%	0.5	-3	·	?	1.1%
O=C(CCc1ccccn1)N1CCCC(N2CCN(c3ccc(F)cc3)CC2)C1 (stereo unspecified)	15%	-2%	-6.7	-15	-8	-29%	0.8%
CN1C(CC(=O)Nc2ccc(Cl)cc2Cl)c2ccccc2CC1(C)C (stereo unspecified)	8%	3%	5.2	-5	0	-12%[15.4 µM]	·
COc1ccc(C(=O)NC23CC4CC(CC(C4)C2)C3)cc1	0%	1%	-1.8	-8	-7	-3%	-0.7%
CC(=O)NC1=NN(C(C)=O)C(c2ccc(C(C)C)cc2)S1 (stereo unspecified)	-9%	12%	1.0	-6	5	-43%[inhibitor]	0.7%
C[C@H]1CN([C@@H](C)CO)C(=O)Cc2cc(NS(=O)(=O)c3ccc(Cl)cc3)ccc2O[C@@H]1CN(C)C(=O)Nc1cccc2ccccc12	·	0%	·	-5	·	·	?
COc1cc(NC(=O)c2cc([N+](=O)[O-])ccc2NC(=O)CNC2CCCCC2)cc(OC)c1	16%	-29%	-0.9	-10	20	6%[15.4 µM]	·
CCOP(=O)(OCC)C(NC(=O)Nc1ccc(Cl)c(Cl)c1)C(N)=O (stereo unspecified)	3%	3%	-2.3	1	9	-23%	16µM*
COc1ccc(N2CCN(C(c3cccc(OC)c3OC)c3nnnn3C3CCCC3)CC2)cc1 (stereo unspecified)	-7%	-5%	1.5	12	4	1%	-8.4%
COc1cccc(NC(=O)C2CCN(S(=O)(=O)c3ccc4c(c3)N(C(C)=O)CCO4)CC2)c1	5%	-12%	-3.0	-24	-6	2%	0.1%
CCOc1ccc(NC(=O)c2cc(F)c(F)cc2Cl)cc1OCC	-3%	13%	2.6	-24	-2	0%[15.4 µM]	-6.0%
CCC(C)n1c(SCC(=O)NC(=O)c2cccn2C)nc2ccccc2c1=O (stereo unspecified)	3%	?	-1.8	3	-11	-3%[15.4 µM]	·
Cc1ccn2c(=O)c(NC(=O)c3cccs3)c(C)nc2c1	·	6%	·	-4	6	-31%[15.4 µM]	·
Cc1ccc(C)c(OCCCCn2cnc3ccccc3c2=O)c1	10%	0%	1.7	-1	-10	8%	0.3%
COC(OC)c1ccnc(-c2ccc(OC(=O)c3ccc(F)cc3)cc2)n1	-2%	-3%	-0.9	-7	19	?	·
CN(C/C=C/c1ccccc1[N+](=O)[O-])Cc1ccccc1	-11%	6%	0.1	-7	30	-6%	1.9%
Cn1nnnc1-c1cc(Br)ccc1NC(=O)c1ccccc1	-1%	45%[activator]	1.5	-7	9	?	1.3%
COc1ccc(S(=O)(=O)N2CCC(C(=O)NCC3CC3)CC2)cc1	-12%	7%	·	-6	2	-31%[inhibitor]	·
Cc1cc(C)cc(NC(=O)CSc2nc3ccncc3[nH]2)c1	11%	-3%	2.6	-6	28	42%	1.1%
CCn1c(CNC(=O)c2cccc(C)c2)nnc1SCC(=O)Nc1nnc(C)s1	8%	0%	-1.0	-4	-11	-5%	·
COc1ccc(-n2nc(C(=O)NCC(=O)Nc3ccc(F)cc3)c3ccccc3c2=O)cc1	-2%	-12%	-7.5	-2	26	10%[15.4 µM]	·
Cc1ccc(OCC(=O)Nc2cccc(O)c2)cc1C	-13%	-7%	-0.4	-12	-4	24%	-0.1%
Cc1cccc(OCCN2CCOCC2)c1C	8%	-4%	-1.4	-1	-46	-11%	1.2%
CCC(C)(C)NC(=O)c1cc(S(=O)(=O)N2CCCCC2)ccc1N1CCOCC1	1%	-5%	-4.5	4	-22	-4%	·
CN1CCc2c(sc(NC(=O)CS(=O)(=O)c3ccccc3)c2C(N)=O)C1	·	?	·	-3	-13	0%[15.4 µM]	·
COC(=O)c1cc(-c2cc(OC)ccc2OC)nc2c1c(=O)n(C)c(=O)n2Cc1ccccc1	-8%	?	8.4	-7	6	-13%	·
CC(C)CN(C(=O)c1ccc(F)cc1F)c1c(N)n(CC(C)C)c(=O)[nH]c1=O	14%	7%	-0.3	1	6	-27%	·
Cc1cc(C)c2nc(NC(=O)CN3C(=O)NC4(CCCC4)C3=O)sc2c1	·	-13%	·	-5	13	-3%[15.4 µM]	0.0%
Cc1ccc(CS(=O)(=O)CCC(=O)NCc2ccccn2)cc1	0%	3%	-1.5	-25	-6	-15%	0.6%
Cc1cccc(S(=O)(=O)NNC(=O)c2cc(-c3ccc(F)cc3)nc3ccccc23)c1	9%	-20%	-8.0	1	10	-4%	12%
C[C@@H]1CN(Cc2nc(-c3ccc(Cl)cc3)no2)C[C@H](C)O1	-1%	8%	-0.1	-5	-4	29%	·
COc1cc2c(cc1NC(=O)C(C)OC(=O)/C=C/c1ccc(OC(F)F)cc1)oc1ccccc12 (stereo unspecified)	-6%	?	5.4	-6	1	?	·
O=C(CN1CCN(S(=O)(=O)c2ccccc2Cl)CC1)NCC1(N2CCOCC2)CCCCC1	·	-6%	·	-2	2	7%[15.4 µM]	·
CC(C)(C)OC(=O)CC(S(=O)(=O)c1ccccc1)S(=O)(=O)c1ccccc1	·	·	·	-31	·	10%	-1.4%
CN(C)c1ccc(/C=N/NS(=O)(=O)c2ccc(Br)cc2)cc1	-7%	-21%	-0.2	-2	15	9%[15.4 µM]	·
Cc1ccc(Nc2nc(CSc3nnc(-c4ccncc4)n3-c3ccccc3C)cs2)cc1	?	-34%	-0.5	22	18	-10%	0.6%
COc1ccc(O)c(C(=O)c2cnc3c(c2)c(C)nn3C)c1	3%	-7%	-4.6	6	19	9%	·
O=C(NCCC1CCCCN1S(=O)(=O)c1ccccc1)C(=O)NCc1ccncc1 (stereo unspecified)	·	6%	·	-1	19	-23%[15.4 µM]	-1.8%
COc1ccccc1N(CC(=O)Nc1ccc2c(c1)OCCO2)S(=O)(=O)c1ccc(C)cc1	15%	-38%	-0.5	-5	17	0%[15.4 µM]	5µM*
CCCCN(C)CCCNC(=O)c1cc(-c2cccnc2)nc2ccccc12	-1%	14%	2.3	-25	-10	28%	-13%&-24%
Cc1ccc(S(=O)CCNC(=O)Cc2ccccc2)cc1 (stereo unspecified)	13%	-6%	-0.7	-1	-1	6%	·
COc1ccccc1N1CCN(C(=O)CC2NC3CCCCC3NC2=O)CC1 (stereo unspecified)	17%	·	1.9	·	1	·	·
CCCNCc1cc(OCC)c(OCC(N)=O)cc1Br	5%	-5%	3.5	-5	2	5%	0.3%
CCOc1cccc(C2C(C(=O)c3ccc(C)o3)=C(O)C(=O)N2Cc2ccccc2)c1 (stereo unspecified)	-20%	-8%	0.6	-4	-2	?	0.0%
N#CC1=C(N)N(c2ncn[nH]2)C2=C(C(=O)CCC2)C1c1ccc(F)cc1 (stereo unspecified)	5%	0%	2.3	-5	-9	-6%[15.4 µM]	0.2%

Remaining list, next part.
mol	Sfp inh	gsp antagonist	Menin-MLL FL inh	D2 PAM	TRPV1 PAM	gsp ag	ClpP mod
CC1(C)CC(CNCCC(c2ccc(F)cc2)c2ccco2)CCO1 (stereo unspecified)	9%	-14%	-0.9	-17	-5	1%[15.4 µM]	·
OC[C@H]1O[C@H](OCCc2ccc(O)cc2)[C@H](O)[C@@H](O)[C@@H]1O	·	14%	·	5	·	·	0.7%
Cc1ccc(-n2nc3c(c2NC(=O)c2ccc(OC(C)C)cc2)CS(=O)C3)cc1 (stereo unspecified)	3%	-3%	4.7	-19	6	2%	1.5%
COc1ccc(S(=O)(=O)N2CCC(C(=O)NCCC(=O)NCCc3cccc(F)c3)CC2)cc1	·	·	·	-3	·	-95%[inhibitor]	-1.3%
